# MITF inhib – MITF inhibition | TRPM1 promoter luciferase, luminescence, 24 h | inhibition, % (test concentration not listed) | hit rate 0.28% among 37,000;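 active means most replicates at 85% or more, or half of them and the mean; inconclusive means half reach 85% but not the mean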;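 further: human melanocyte line stably carrying TRPM1 promoter luciferase reporter; 0% = vehicle wells and 100% = a positive control; the first replicate is given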
# Hedgehog inh – Sonic Hedgehog pathway inhibition; hit rate 2.1% among 22,000; Shh-LIGHT2 Gli-luciferase reporter, 30 h; AID 2313; inhibition, % (concentration not given with the values);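 active means replicate mean of 65% or more; inconclusive means mean lower but half the replicates past it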;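 further: pathway switched on by Shh-conditioned medium diluted 1 in 25 in low serum; 100 nL library stock added to about 40 µL; 0% = median of neutral wells and 100% = positive control level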
# PD-1 reverse act – reversal of PD-1 mediated T-cell inhibition. 29,000 tested, under 10 active. primary human CD4 T cells, PD-L1 beads, CellTiter-Glo 96 h. activation, % (no concentration beside the values). AID 2316;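 active means replicate mean of 50% or more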;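 further: 0% = median vehicle wells and 100% = positive control; 100 nL library stock added to about 50 µL; numbers are from one replicate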
# YB-1 expression – YB-1 expression inhibition; delta delta Cp (YB-1 minus CDIP) (test concentration not listed); hit rate 0.37% among 30,000; U2OS, qRT-PCR YB-1 vs CDIP delta delta Cp, 16 h; stronger effect = higher value; zero = DMSO, each unit about twofold; AID 434959;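 active means delta delta Cp rounded down to an integer at or above 3, about 3 SD of DMSO wells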;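 further: higher means less YB-1 transcript or more CDIP transcript relative to DMSO; stock transfer was 100 nL into about 100 µL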
# * hit, by the source's call; ? = inconclusive; / = not tested or not shown.
# Values run as follows: Hedgehog inh	MITF inhib	PD-1 reverse act	YB-1 expression
COc1ccc(NC(=O)N(C)C[C@H]2Oc3ccc(NS(=O)(=O)c4cccs4)cc3C(=O)N([C@H](C)CO)C[C@@H]2C)cc1
  -13.8	-7.0	1.5	-0.176
CS(=O)(=O)N(CC(=O)Nc1cc(Cl)ccc1Oc1ccccc1)c1cc(Cl)ccc1Cl
  /	27.0	0.5	/
C[C@@H]1CN([C@@H](C)CO)C(=O)c2cccc(NC(=O)c3ccncc3)c2O[C@@H]1CN(C)C(=O)Nc1ccc(F)cc1
  -24.3	-7.7	-0.3	-0.251
Cc1ccc(S(=O)(=O)N(C)C[C@H]2Oc3ccc(NC(=O)CCCN(C)C)cc3C(=O)N([C@@H](C)CO)C[C@@H]2C)cc1
  -27.4	-1.2	0.0	-0.16
O=C(O)CCc1nn2c3ccccc3n(CC(=O)c3cccs3)c2nc1=O
  /	1.6	1.2	/
C[C@H](CO)N1C[C@H](C)[C@H](CN(C)C(=O)Nc2ccc3c(c2)OCO3)Oc2ccc(NC(=O)Nc3ccccc3)cc2C1=O
  -18.8	-14.5	-0.5	0.219
COc1ccc(S(=O)(=O)Nc2ccc3c(c2)C(=O)N([C@@H](C)CO)C[C@H](C)[C@@H](CN(C)Cc2ccc(Oc4ccccc4)cc2)O3)cc1
  36.1	8.9	-0.1	0.00172
COc1ccc(OC)c(NC(=O)Cn2c(=O)oc3ccccc32)c1
  /	6.3	0.5	/
Cc1ccc(S(=O)(=O)N(C)C[C@@H]2Oc3ccc(NC(=O)CCC(F)(F)F)cc3CC(=O)N([C@@H](C)CO)C[C@@H]2C)cc1
  4.7	14.8	0.3	0.31
COc1ccc(-c2nnc3c4ccccc4c(C)nn23)cc1S(=O)(=O)NCc1cccnc1
  /	9.8	-0.2	/
O=C(COc1ccc(Cl)cc1C1C2=C(CCCC2=O)NC2=C1C(=O)CCC2)Nc1ccc(Cl)cc1
  /	27.2	0.4	/
O=C(CSc1nc2ccccc2[nH]1)Nc1ccc(Cl)cc1O
  /	20.1	-0.4	/
CC(Oc1ccc(C(C)(C)C)cc1)c1nc(-c2cccnc2)no1 (configuration not stated)
  /	62.5	-6.1	/
COC(=O)c1ccccc1NC(=O)Cn1c([N+](=O)[O-])cnc1C
  /	-0.4	1.3	/
COc1ccc(S(=O)(=O)Nc2cccc3c2O[C@@H](CN(C)S(=O)(=O)c2ccccc2)[C@@H](C)CN([C@@H](C)CO)C3=O)cc1
  -0.4	-2.3	1.1	-0.198
COc1ccc(S(=O)(=O)N(C)C[C@@H]2Oc3ccc(N(C)C)cc3C(=O)N([C@@H](C)CO)C[C@@H]2C)cc1
  24.3	-0.3	/	0.15
COc1ccc(NC(=O)c2ccc3c(=O)n(Cc4ccco4)c(=S)[nH]c3c2)cc1OC
  77.2*	5.1	0.0	-0.0927
Cc1nn(-c2ccccc2)c(N)c1C(N)=S
  2.7	-8.5	-7.6	0.0607
C[C@@H]1CN([C@H](C)CO)C(=O)c2cccc(NC(=O)c3ccc(-c4nccs4)cc3)c2O[C@@H]1CN(C)Cc1ccc(C(=O)O)cc1
  26.7	-0.4	2.5	0.308
Cc1ccc(-c2nn(C)c(=O)c3ccccc23)cc1CNC(=O)CN1C(=O)c2ccccc2C1=O
  /	-8.7	-0.5	/
C[C@@H]1CCCCO[C@H](CN(C)Cc2ccncc2)[C@@H](C)CN([C@H](C)CO)C(=O)c2cc(NC(=O)NC3CCCCC3)ccc2O1
  /	-10.2	1.1	-0.0994
Cc1ccc(S(=O)(=O)N(C)C[C@H]2Oc3ccc(NC(=O)CCC(F)(F)F)cc3CC(=O)N([C@@H](C)CO)C[C@@H]2C)cc1
  11.6	-1.5	/	-0.0212
COc1ccc(NC(=O)Nc2ccc3c(c2)C(=O)N([C@@H](C)CO)C[C@H](C)[C@H](CN(C)C(=O)NC(C)C)O3)cc1
  -13.7	0.9	1.8	0.167
C[C@H](CO)N1C[C@H](C)[C@@H](CN(C)S(=O)(=O)c2cn(C)cn2)Oc2c(NC(=O)c3ccncc3)cccc2C1=O
  -6.2	0.4	1.4	-0.135
C[C@H]1CN([C@@H](C)CO)C(=O)Cc2cc(NC(=O)c3ccncc3)ccc2O[C@@H]1CN(C)S(=O)(=O)c1ccc(Cl)cc1
  -16.2	13.0	/	0.153
COc1cccc2cc(C(=O)C3C(=O)C(=O)N(CCc4ccccc4)C3c3cccnc3)oc12 (configuration not stated)
  /	-2.5	1.6	/
C[C@@H]1CN([C@H](C)CO)C(=O)Cc2cc(NC(=O)Nc3ccc4c(c3)OCO4)ccc2O[C@H]1CN(C)Cc1ccc(C(F)(F)F)cc1
  -9.1	21.4	-4.7	-0.0868
COc1ccc(NC(=O)Nc2ccc3c(c2)CC(=O)N([C@@H](C)CO)C[C@H](C)[C@H](CN(C)S(=O)(=O)c2ccccc2)O3)cc1
  26.0	8.2	-0.1	0.235
CCCCC[C@H](O)/C=C/[C@H]1C=CC(=O)[C@@H]1C/C=C\CCCC(=O)O
  -13.5	-9.0	2.2	0.215
C[C@H]1CN([C@@H](C)CO)C(=O)c2cc(N(C)C)ccc2O[C@@H]1CN(C)S(=O)(=O)c1cn(C)cn1
  -13.2	-7.4	0.3	0.0593
CSc1nsc(SCC(=O)OC2CC3CCC2(C)C3(C)C)n1 (configuration not stated)
  /	0.9	0.4	/
C[C@H](CO)N1C[C@H](C)[C@H](CN(C)Cc2ccccc2)Oc2ccc(NS(=O)(=O)c3ccc(F)cc3)cc2CC1=O
  11.0	-23.9	2.9	-0.285
Cc1nnc(N2C(=O)C(=O)C(C(=O)c3ccco3)C2c2cccc(Oc3ccccc3)c2)s1 (configuration not stated)
  /	-25.0	1.3	/
CNC[C@@H]1Oc2ccc(NC(=O)Nc3cccc4ccccc34)cc2C(=O)N([C@H](C)CO)C[C@H]1C
  21.7	8.0	0.0	-0.279
Cc1cc(Cl)cc(Cl)c1OCC(=O)Nc1cccc(NC(=O)c2ccccc2Cl)c1
  /	40.1	-1.8	/
O=C(CSc1ncc(-c2ccccc2)nn1)Nc1ccc(I)cc1
  /	21.9	1.0	/
C[C@H]1CN([C@@H](C)CO)C(=O)c2cc(NC(=O)CCC(F)(F)F)ccc2O[C@H]1CN(C)C(=O)Nc1ccc(F)cc1
  /	3.9	/	-0.244
COc1ccc(NC(=O)Nc2cccc3c2O[C@@H](CN(C)S(=O)(=O)c2cn(C)cn2)[C@@H](C)CN([C@H](C)CO)C3=O)cc1
  -9.0	5.6	2.0	-0.000254
COc1ccc2c(c1)OCC(Cc1ccc(OC)c(OC(C)=O)c1)C2=O (configuration not stated)
  2.7	4.1	/	-0.0622
C[C@@H]1CN([C@@H](C)CO)C(=O)c2cccc(N(C)C)c2O[C@H]1CN(C)S(C)(=O)=O
  15.1	1.9	2.0	-0.103
COc1cc2c(cc1NC(=O)CN(C)S(=O)(=O)c1ccc(Br)cc1)oc1ccccc12
  /	13.2	2.7	/
Cc1ccc(S(=O)(=O)Nc2ccc3c(c2)C(=O)N([C@H](C)CO)C[C@H](C)[C@H](CN(C)S(=O)(=O)c2ccc(C)cc2)O3)cc1
  /	-6.0	-2.4	0.535
COC(=O)c1ccc(C(=O)OC)c(NC(=O)CCc2ccc(C)o2)c1
  /	-19.6	-0.8	/
Cn1nnnc1SCC(=O)Nc1ccc(I)cc1
  /	-25.8	1.0	/
O=C(Nc1ccc(Cl)cc1)Nc1ccccc1C(=O)NCc1ccco1
  /	-26.5	-1.8	/

# Compounds above with an aryl thioether with sulfur outside any ring (4):
# Values run as follows: Hedgehog inh	MITF inhib	PD-1 reverse act	YB-1 expression
O=C(CSc1nc2ccccc2[nH]1)Nc1ccc(Cl)cc1O
  /	20.1	-0.4	/
CSc1nsc(SCC(=O)OC2CC3CCC2(C)C3(C)C)n1 (configuration not stated)
  /	0.9	0.4	/
O=C(CSc1ncc(-c2ccccc2)nn1)Nc1ccc(I)cc1
  /	21.9	1.0	/
Cn1nnnc1SCC(=O)Nc1ccc(I)cc1
  /	-25.8	1.0	/

# Next records:
# Values run as follows: Hedgehog inh	MITF inhib	PD-1 reverse act	YB-1 expression
C[C@H](CO)N1C[C@H](C)[C@@H](CN(C)C(=O)Nc2ccc(C(F)(F)F)cc2)Oc2c(NC(=O)Nc3cccc4ccccc34)cccc2C1=O
  17.0	20.8	-5.2	0.222
C[C@H](CO)N1C[C@H](C)[C@H](CN(C)C(=O)Nc2ccccc2)Oc2c(NC(=O)Nc3cccc4ccccc34)cccc2C1=O
  -5.2	32.7	-2.6	0.0369
Cc1ccc(S(=O)(=O)c2nc(S(=O)(=O)c3ccc(C)cc3)c(NCc3ccco3)s2)cc1
  22.1	16.5	-2.2	0.103
Cc1ccc(-c2cc(C(F)F)n3ncc(C(=O)NCc4cn(C)nc4C)c3n2)cc1
  /	10.7	-7.8	/
COc1ccc(NC(=O)Nc2ccc3c(c2)CC(=O)N([C@@H](C)CO)C[C@@H](C)[C@@H](CN(C)S(=O)(=O)c2ccc(F)cc2)O3)cc1
  -33.7	-7.1	0.2	-0.0111
Cc1cc(C(=O)Nc2cccc3c2O[C@@H](CN(C)C)[C@@H](C)CN([C@H](C)CO)C3=O)n(C)n1
  -13.6	-4.7	1.8	-0.322
CSc1cccc(NC(=O)C(C)N(c2ccc(C)cc2)S(C)(=O)=O)c1 (configuration not stated)
  /	-3.6	-2.8	/
C[C@@H]1CCCCO[C@H](CN(C)CC2CCCCC2)[C@@H](C)CN([C@H](C)CO)C(=O)c2cc(NC(=O)CCC(F)(F)F)ccc2O1
  -8.1	-10.7	-1.6	0.609
COc1ccc(NC(=O)N(C)C[C@H]2Oc3c(NC(=O)c4ccncc4)cccc3C(=O)N([C@H](C)CO)C[C@@H]2C)cc1
  -2.2	-3.5	/	-0.053
COC(=O)NCC12CC3CC(CC(C3)C1)C2
  -19.2	0.3	-0.5	0.377
COc1ccc([N+](=O)[O-])cc1NC(=O)CCSc1ccc(C)cc1
  /	20.9	-1.4	/
CCN1C2=C(C(=O)CC(C)(C)C2)C(c2ccc(OC)cc2)C2=C1CC(C)(C)CC2=O
  4.5	-1.7	-1.2	0.0772
COc1ccc(S(=O)(=O)N(C)C[C@H]2Oc3c(NS(=O)(=O)c4cn(C)cn4)cccc3C(=O)N([C@H](C)CO)C[C@H]2C)cc1
  6.2	-2.8	2.7	-0.349
COC(=O)c1cc(O)cc(O)c1C(=O)c1c(O)cc(C)cc1O
  -11.1	-5.2	0.5	-0.181
Cc1noc(C)c1NC(=O)Nc1ccc2c(c1)CC(=O)N([C@H](C)CO)C[C@@H](C)[C@@H](CN(C)CC1CC1)O2
  -5.7	-14.2	/	-0.031
COc1ccc(S(=O)(=O)N(C)C[C@@H]2Oc3ccc(NC(=O)Cc4ccccc4)cc3CC(=O)N([C@H](C)CO)C[C@@H]2C)cc1
  11.4	11.9	2.0	-0.0237
c1ccn2cc(C34CC5CC(CC(C5)C3)C4)nc2c1
  ?	-27.2	-7.2	-0.282
O=C(CCC(=O)c1ccc(F)cc1)Nc1cccnc1
  /	-2.3	1.4	/
C=C[C@@]12COC(=O)C(=C)C1[C@@H](O)[C@H](C(=C)C(=O)OC)[C@@H](OC(=O)C(=C)CO)C2 (some centres not stated)
  -2.5	5.0	-16.4	-0.0315
COC(=O)c1ccc(OCC(O)Cn2c(C)[n+](C)c3ccccc32)cc1 (configuration not stated)
  5.5	-12.3	0.2	-0.674
CCCCCCCCCC/C=C\CCCCCCCc1cccc(O)c1C(=O)O
  103.1*	80.7	-7.0	-0.0678
CCOC(=O)CSc1ncc(-c2ccccc2)nn1
  /	-23.0	1.1	/
C[C@@H]1CN([C@H](C)CO)C(=O)c2cc(NC(=O)CCCCCC(=O)Nc3ccccc3N)ccc2O[C@@H]1CN(C)S(=O)(=O)c1ccccc1
  /	-4.6	2.0	0.0722
Cc1ccc(NS(=O)(=O)c2cc(C(=O)O)ccc2Br)cc1
  -30.0	-0.2	1.0	0.0606
C[C@@H]1CN([C@H](C)CO)C(=O)Cc2cc(NC(=O)CCC(F)(F)F)ccc2O[C@H]1CN(C)Cc1ccc(Oc2ccccc2)cc1
  -22.0	14.3	-4.0	-0.176
C[C@@H]1CN([C@H](C)CO)C(=O)Cc2cc(NC(=O)CCCCCC(=O)Nc3ccccc3N)ccc2O[C@H]1CN(C)C(=O)NC1CCCCC1
  /	-19.5	-0.2	-0.0438
COc1ccc(OCCSc2ncnc3nc[nH]c23)cc1
  -94.7	0.0	0.2	-0.176
C[C@H](CO)N1C[C@H](C)[C@H](CN(C)S(=O)(=O)c2cn(C)cn2)Oc2ccc(NC(=O)Nc3ccccc3)cc2CC1=O
  -20.1	-3.2	1.7	-0.349
C[C@]1(OC(=O)/C=C/c2ccccc2)C[C@@H](O)[C@]2(O)C=CO[C@@H](O[C@@H]3O[C@H](CO)[C@@H](O)[C@H](O)[C@H]3O)[C@@H]21
  -29.7	6.6	/	-0.516

# Screening results deposited in PubChem by Broad Institute.

# This is a subset; the hit share may differ from the screen's.
